Screens from PubChem BioAssay.
Bfl-1 A1 inh = caspase 3/7 activation in MEF A1-2A-BIM cells, primary screen, A1 inhibitor project, cell-based, luminescence, HTS | Caspase-Glo 3/7 luminescence, 3 h; percent of clofoctol response, vehicle zero | caspase activation, % (test concentration not listed) | hit rate 0.066% among 330,000;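 active means over half of replicate activation scores above 10%, or exactly half above 10 with the replicate mean above 10; inconclusive means replicate mean below 10 yet half the replicates above 10; inactive means over half of replicates below 10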;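 further: wells of about 30 µL received 50 nL stock; many hits fall short of the cut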
T cruzi inh = inhibitors of intracellular T. cruzi growth, primary screen, luminescence, NIH3T3 host cells; hit rate 1.4% among 300,000; T. cruzi beta-gal in NIH3T3, 90 h; inhibition, % (test concentration not listed); AID 1885, 2009;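 active means mean inhibition across valid replicates above about 55%, limit read from the data; inconclusive means mean below that limit but half or more replicates reach it; inactive means mean below it, under half of replicates reach it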;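 further: signal also drops with host cell toxicity which is not excluded here; 0% = plate median of DMSO wells and 100% = zero luminescence signal; higher percent means less beta-gal luminescence so fewer parasites; stock transfer was 50 nL into about 50 µL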
RanGTP-Imp inh = inhibitors of RanGTP-importin-beta interaction, primary screen, biochemical, FRET, CFP-Ran, YFP-importin-beta, homogeneous. Ran GTPase (GTP-bound) - importin-beta complex. cell-free CFP-Ran/YFP-importin-beta FRET ratio. inhibition, % (test concentration not listed). hit rate 1.1% among 300,000. AID 2216, 2009;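 active means most replicates above 15%; inconclusive means exactly half above 15%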;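 further: 0% = DMSO wells and 100% = Ran loaded with GDP instead of GTP; wells of about 40 µL received 100 nL stock; the first replicate is given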
Vif TR-FRET = inhibitors of Vif binding to APOBEC3G peptide, primary screen, biochemical, TR-FRET, GST-Vif 1-94, biotin-A3G peptide, dose response retest (AID 1117319) | TR-FRET GST-Vif / biotin-A3G peptide binding; higher % means a stronger effect; test concentration not given here; strong numbers were not always called active | hit rate 0.57% among 260,000 | Virion infectivity factor (Human immunodeficiency virus type 1 group M subtype B (isolate … | one-dose inhibition, %; IC50 in µM for titrated hits;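 active means above the screen mean plus three standard deviations and confirmed in dose response; inconclusive means results disagree or hit not tested in dose response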;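 further: Vif residues 1-94 fused to GST binding biotinylated APOBEC3G peptide 110-148; 0% = full assay without inhibitor and 100% = GST in place of GST-Vif; retest series ran down from 100 µM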
Beta cell apopt = inhibitors of cytokine-induced beta cell apoptosis, primary screen, luminescence | INS-1E cytokine-induced death, ATP luminescence, 48 h; percent of positive-control rescue, neutral wells zero | protection from apoptosis, % (test concentration not listed) | hit rate 0.8% among 300,000 | AID 435005, 2010;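 active means all replicates at 75% or more, or half of them and the mean; inconclusive means half reach 75% but not the mean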;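 further: 0% = cytokine-treated negative control wells and 100% = positive control rescue; higher means more ATP so stronger rescue from cytokine killing; wells of about 40 µL received 100 nL stock; the first replicate is given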
Ecoli rRNA inh = reduced GFP signal of wild-type E. coli, primary screen, bacterial rRNA inhibitor project, GFP/RFP fluorescence, OD600, single point. E. coli WT GFP vs humanized-ribosome RFP mutants, 24 h; active compounds read low; DMSO median 0, no signal -100. hit rate 1.6% among 350,000. AID 720706, 2013. GFP signal change (wild-type ribosome), % (concentration not given with the values);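 active means significant combined selectivity score with lowered wild-type GFP, culture density cut under 30%, mutant RFP and density less affected; inactive means any of these conditions unmet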; further: one replicate is shown; some compounds called inactive have numbers as strong as hits
AF4-AF9 inh = inhibitors of AF4 peptide binding to AF9, primary screen, biochemical, AlphaScreen, biotin-AF4 peptide, FLAG-AF9, single point | Protein AF-9 (Homo sapiens), P42568 | inhibition, % at 10 µM | hit rate 0.47% among 350,000 | AID 651704, 2012;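 active means every replicate reaching a set inhibition limit, whatever the replicate mean, cut at about 25% in these data; inconclusive means mean inhibition reaches that limit but some replicates miss it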;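 further: 0% = plate neutral control median and 100% = total signal loss; the record names both 10 and 1 µM as test concentration; the first replicate is given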
Target sequence (P42568 whole entry, looked up): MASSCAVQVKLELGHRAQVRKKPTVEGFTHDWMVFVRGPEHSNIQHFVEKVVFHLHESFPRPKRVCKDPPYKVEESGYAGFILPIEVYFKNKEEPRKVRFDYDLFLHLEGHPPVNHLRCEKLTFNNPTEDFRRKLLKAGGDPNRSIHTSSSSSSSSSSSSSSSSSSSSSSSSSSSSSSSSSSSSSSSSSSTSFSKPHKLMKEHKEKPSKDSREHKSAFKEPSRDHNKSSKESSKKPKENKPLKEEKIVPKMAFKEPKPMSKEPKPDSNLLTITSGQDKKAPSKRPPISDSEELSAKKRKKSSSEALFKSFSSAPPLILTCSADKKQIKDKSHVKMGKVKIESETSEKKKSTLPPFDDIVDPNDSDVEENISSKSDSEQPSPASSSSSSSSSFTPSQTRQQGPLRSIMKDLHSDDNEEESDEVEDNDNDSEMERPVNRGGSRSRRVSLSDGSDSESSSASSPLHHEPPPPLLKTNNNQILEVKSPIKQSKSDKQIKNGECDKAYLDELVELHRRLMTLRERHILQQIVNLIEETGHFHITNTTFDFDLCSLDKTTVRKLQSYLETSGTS
Calb FLC = C. albicans growth inhibition with fluconazole, primary screen, CaCi-2 strain, Alamar Blue fluorescence; C. albicans CaCi-2 (fluconazole-resistant clinical isolate) + fluconazole, 48 h; growth inhibition, % (test concentration not listed); AID 1979, 2009; hit rate 0.57% among 300,000;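 active means most replicates above 75%; inconclusive means exactly half above 75%; inactive means most below 75%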;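 further: all wells also contain fluconazole at 8 µg/ml as a sub-toxic cotreatment; 0% = median of DMSO wells and 100% = median of geldanamycin control wells; wells of about 8 µL received 7.5 nL stock; the first replicate is given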
Ecoli rRNA inh OD600 = further read-out of Ecoli rRNA inh, marked with its call; OD600 change, %; measured here: OD600 growth;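 optical density of the mix in the first replicate; 0 = DMSO median and -100 = no signal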
Ecoli rRNA inh RFP = second read-out of Ecoli rRNA inh, no call of its own (marks repeat the call); RFP signal change, %; measured here: RFP humanized mutant strains;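 first replicate; 0 = DMSO median and -100 = no signal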
Starred values were filed as active, the others as inactive; ? = inconclusive; / = no result given; & = joins results of further samples.

SMILES	Bfl-1 A1 inh	T cruzi inh	RanGTP-Imp inh	Vif TR-FRET	Beta cell apopt	Ecoli rRNA inh	Ecoli rRNA inh OD600	Ecoli rRNA inh RFP	AF4-AF9 inh	Calb FLC
CC(=O)CC1(O)C(=O)Nc2ccccc21 (stereo unspecified)	1.1	-7	0.2	4%	-4	8&8	8&3	0.6&0.4	-4.2&-19	5
Cc1ccc(C23CC4CC(CC(C(=O)NC(C)C(=O)O)(C4)C2)C3)cc1 (stereo unspecified)	0.1	-21	5.6	3%	-1	0	6	2.4	0.7	-3
COc1ccc(OCC(=O)Nc2cc(NC(=O)COc3ccc(OC)cc3)cc(C(=O)O)c2)cc1	-0.6	-8	2.1	3%	-2	0	1	3.1	-7.7	35
COc1cccc(NC(=O)CN(c2ccc(C)cc2)S(=O)(=O)c2c(C)nn(C)c2C)c1	0.8	-2	-0.3	-5%&-2%	8	-6	-1	-2.6	/	9
O=C(CN1C(=O)S/C(=C\c2ccccc2Cl)C1=O)NC1C=CS(=O)(=O)C1 (stereo unspecified)	1.9	8	4.5	/	10	2	-3	4.2	?	2
Cc1ccc(C(=O)NCC(=O)OCC(=O)c2ccccc2)s1	-0.1	/	/	-6%	-1	7	1	-0.5	-0.2	/
Cc1ccc(-c2nnn(CC(=O)N(CCCO)C(C(=O)NC3CCCC3)c3ccc(F)cc3)n2)o1 (stereo unspecified)	0.4	-18	-0.9	-2%	1	0	6	0.8	-5.5	36
Cc1ccc(NN2C(=O)C=C(c3ccc(Cl)cc3)C2=O)cc1	11*	24	6.1	-4%	-5	/	/	/	/	-40
COc1ccc(CCN(C)Cc2nc(Cc3ccc(OC)c(OC)c3)no2)cc1OC	-1.2	13	4.1	3%	-4	-2	-3	-2.2	3.1	2
COC(=O)c1c(NC(=S)NC(=O)c2ccco2)sc2c1CCCC2	0.4	41	-5.2	-16%	6	/	/	/	/	-5
Cc1cc(C)nc(/N=C(\N)Nc2cc([N+](=O)[O-])ccc2C)n1	0.8	-24	1.9	0%	/	/	/	/	/	-17
O=C(CNc1ccc(Br)cc1)c1ccccc1	0.5	-18	1.8	-3%	-6	/	/	/	/	-4
Cc1oc(-c2ccccc2Cl)nc1CS(=O)CC(=O)NCc1ccc2c(c1)OCO2 (stereo unspecified)	0.5	15	1.2	3%	2	-3	-17	-0.2	2.4	-22
Cc1ccc(S(=O)(=O)CC#CCOC(=O)c2ccc([N+](=O)[O-])cc2)cc1	?	-15	-1.0	-16%	-9	/	/	/	/	-2
CCOc1ccc(NC(=O)C2CC(=O)N(c3cc(C)cc(C)c3)C2)cc1 (stereo unspecified)	0.6	4	2.9	1%	-1	/	/	/	/	-10
O=C(O)/C=C(\Oc1ccccc1)C1(O)CCCCC1	0.7	-12	0.9	4%	-8	9	17	0.9	1.1	-9
COc1ccccc1-n1c(C)c(C(C)=O)c2cc(O)ccc21	0.4	-5	0.5	1%	-14	0	2	1.0	1.4	-10
Cc1cc(C)nc(NCCCc2ccccc2)n1	-0.8	-3	6.6	28%	-1	-7	6	3.0	1.5	-29
COc1ccc(C2=Nc3cccc4cccc(c34)N2)cc1	-0.4	5	3.6	-3%	/	/	/	/	/	0
Cc1cccc([C@@H]2[C@@H]3C(=O)N(Cc4ccccc4)C(=O)[C@@H]3[C@]3(C)C(=O)N(c4cccc(F)c4)C(=O)N23)c1	0.0	-7	-0.8	/	-2	-3	-9	3.5	2.5	23
Cc1[nH]nc2c1C(c1ccc(N(C)C)cc1)C1=C(CC(C)(C)CC1=O)N2 (stereo unspecified)	0.9	-5	?	/	-7	21	4	5.5	5.5	5
CC(C)OCCCNCC(O)c1ccccc1 (stereo unspecified)	0.5	-8	1.4	-8%	-8	/	/	/	/	?
Cc1oc2c(c(C)cc3oc(=O)c(CC(=O)NCCC(=O)O)c(C)c32)c1C	0.0	-6	-3.1	-4%	4	-16	-42	-3.5	0.9	4
Cc1ccc(NC(=O)C2CCN(S(=O)(=O)c3ccc4c(c3)NC(=O)CO4)CC2)cc1	-0.2	14	-3.1	/	-2	-18*	-6.1*	3.7*	2.3	4
COc1ccc2c(c1)CCN=C2Cc1ccc(OC)c(OC)c1	-0.1	14	-1.5	0%	-8	/	/	/	/	36
O=C(CN1C(=O)c2ccccc2S1(=O)=O)NCCSCc1ccccc1Cl	-0.7	-4	-1.0	/	2	0	6	1.9	-0.6	6
Cc1ccc(C2C(=O)c3ccccc3C2=O)cc1	-2.8	2	-7.1	-4%	0	8	10	-0.1	-3.2	-1
Cc1cc(C)c(NS(=O)(=O)c2ccc3c(c2)n(C)c(=O)n3C)c(C)c1	0.5	4	-2.0	-2%	-18	1	6	1.2	-0.5	6
CC(C)(C)NC(=O)CSc1nc(Cc2ccccc2)nc2ccccc12	1.1	11	-1.2	12%	-7	-1	2	1.5	2.6	9
C#CCOCCOCCOCCNc1nc(N2CCN(C(=O)[C@H]([C@@H](C)CC)n3cc([C@@H](N)CO)nn3)CC2)nc(N2CCN(C(=O)[C@H](Cc3cc4ccccc4[nH]3)n3cc([C@@H](N)C(C)CC)nn3)CC2)n1 (stereo partly specified)	2.1	-10	2.4	-4%	0	/	/	/	/	14
CCc1ccc(C(=O)Nc2nc3ccccc3[nH]2)cc1	-7.7	31	0.6	/	44	2	2	-0.4	6.5	-4
CC(C)NC(=O)COc1nncc2ccccc12	0.4	-14	2.4	2%	/	10	11	3.4	-1.7	-12
N#Cc1c(-c2ccccc2)c(C#N)c2nc3ccccc3n2c1N	0.3	0	-4.3	-20%	49	/	/	/	/	1
CC(NC(=O)Nc1ccc(Cl)cc1)c1ccccc1 (stereo unspecified)	-0.2	-4	1.7	/	-1	-45	-77	-18	-2.6	-8
O=C(CN1C(=O)CCS(=O)(=O)c2ccccc21)Nc1cccc(Cl)c1	0.8	0	-1.5	?	-1	/	/	/	/	1
O=C(COC(=O)[C@@H]1CCCN1S(=O)(=O)c1ccc(Cl)cc1)NCC(F)(F)F	-0.4	8	1.2	-3%	-1	/	/	/	/	10
O=C(O)CCCCCn1c(SCc2cc(=O)n3cc(Cl)ccc3n2)nc2ccsc2c1=O	0.2	4	-1.3	/	-13	/	/	/	/	3
CNS(=O)(=O)c1ccc(NC(=O)c2csc(C)c2)cc1	0.8	-4	-4.1	-1%	-4	-10	-3	-6.4	0.6	5
COc1ccc(CN2CCN(Cc3cc4ccccc4o3)CC2CCO)c(F)c1 (stereo unspecified)	3.5	12	-4.7	/	-11	1	4	0.4	-6.0	-2
O=S(=O)(c1ccccc1)c1nc(Cc2ccccc2)oc1N1CCOCC1	0.6	-2	?	0%	3	8	12	-2.0	-0.9	3
O=C1c2ccccc2NC(c2ccccc2)N1Cc1ccccc1 (stereo unspecified)	-0.3	18	4.4	/	-1	/	/	/	0.4	-8
CC1CC(C)CN(C(=O)COC(=O)c2cc([N+](=O)[O-])ccc2N2CCOCC2)C1 (stereo unspecified)	0.4	-3	0.7	0%	2	-4	0	0.1	-11	-1
Cc1cc(C(=O)COC(=O)c2n[nH]c3ccccc23)c(C)n1CC1CCCO1 (stereo unspecified)	-8.3	4	0.9	?	5	/	/	/	/	-1
COc1ccc(C(C(=O)NC2CCCCC2)N(C(=O)Cc2c[nH]c3ccccc23)c2ccc(NC(C)=O)cc2)cc1OC (stereo unspecified)	1.3	5	12	1%	-2	/	/	/	/	35
COc1ccccc1NC(=O)COC(=O)c1ccccc1OCC(=O)Nc1ccc(SC(F)F)cc1	0.4	5	7.6	5%	2	13	7	3.8	6.7	3
CCOC(=O)C1=CN(CC2CCCO2)C=C(C(=O)OCC)C1c1ccccc1C(F)(F)F (stereo unspecified)	-0.1	27	5.4	-8%	/	10	14	0.7	-3.0	28
CCOc1ccc(N2C(=O)CC(S/C(N)=N/N=C/c3cccs3)C2=O)cc1 (stereo unspecified)	0.0	-2	-1.8	26%	-2	/	/	/	/	-7
Cn1c(=O)c2c(C(=O)O)cc(-c3ccccc3)nc2n(Cc2ccccc2)c1=O	0.7	3	-36	/	-5	-3	-7	-3.5	-4.3	7
CC12CCC(C(=O)N(CC(O)CN3CCCCCC3)C1=O)C2(C)C (stereo unspecified)	0.5	2	4.5	3%	-1	-4	0	-1.7	-0.6	-11
CC(=O)c1cnc(Oc2cc(Cl)ccc2Cl)nc1C	0.2	-1	-0.4	-1%	-2	4	0	1.3	-2.6	-6
COc1ccc(C(=O)c2nc3c(n2O)CCCCC3)cc1	-0.5	-15	?	25%	-6	/	/	/	/	37
COc1ccccc1OCCSc1nc(C)c(Cc2ccccc2)c(=O)[nH]1	0.6	0	4.4	12%	-6	/	/	/	/	6
COc1ccc(N(CC(=O)NCc2ccc(Cl)cc2)S(=O)(=O)c2c(C)nn(C)c2C)cc1	-0.4	21	-4.5	-4%	11	-1	12	-2.0	0.4	2
CC1CC(CC(=O)NNc2nc(-c3ccccc3)cs2)C(=O)O1 (stereo unspecified)	-0.4	5	-3.5	4%	2	3	4	6.0	-0.2	-11
CCOc1ccc(OCC)c(NC(=O)CCSCCc2ccccn2)c1	-0.1	7	0.5	-12%	0	-3	0	0.1	8.4	-1
Cc1csc(NC(=O)c2ccc(COc3ccccc3)o2)n1	-2.2	1	4.4	/	0	-8	-23	-4.7	-3.7	3
CN(C)c1nc(N)c([N+](=O)[O-])c(NCCO)n1	-1.1	-3	-1.0	2%	3	14	3	1.7	6.6	-2
CC(C)N(C(=O)COC(=O)c1ccccc1C(=O)N1CCN(c2ccc(F)cc2)CC1)C(C)C	1.2	-1	1.3	1%&-2%	-2	/	/	/	/	13
CN1C(=O)Cc2cc(S(=O)(=O)N3CCN(c4ccccc4F)CC3)ccc21	0.2	-10	0.7	/	-1	9	3	6.6	4.2	16

Some of the compounds tested; the hit share may differ from the screen's.
